Source: PubChem BioAssay
MT1-MMP act inh = MT1-MMP (human) activation inhibition | GFP/RFP ratio change, % at 20 µM | HT1080 RFP-PRO-GFP cells, GFP/RFP ratio fluorescence, overnight; percent of plate control window, DMSO zero | actives 0.061% (n = 360,000) | AID 651647 | P50281;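 active = GFP/RFP ratio change of at least 30% with cell ATP level not reduced by more than half and red fluorescence within 50% of control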; note: strong numbers were not always called active
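Assay system: HT1080 RFP-PRO-GFP cells. Benchmarks: DMSO vehicle wells and RFP-L50D-GFP reporter cell wells. Times: overnight cell settling, then overnight compound exposure, 37 °C, 5% CO2. Compound: 20 µM single dose, 1% DMSO. Read-out basis: GFP/RFP fluorescence ratio.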
CSC inhib = cancer stem cell inhibition | inhibition, % at 7.5 µM | cancer stem cell-like cells viability, luminescence | actives 1.1% (n = 300,000);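 active = mean at 75% or more and at least half the replicates too; inconclusive = mean and replicates disagree; tested in HMLE shEcad cells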;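 note: 0% = median of negative and 100% = median of positive control wells; the first replicate is given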
eIF4H inh = inhibitors of RNA binding by human eIF4H. Q15056. eIF4H fluorescence polarization binding assay. inhibition, % at 35 µM. actives 0.94% (n = 290,000);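 active = 50% or more with normal probe brightness, or confirmed in later tests; inconclusive = above 50% with abnormal brightness, or retests that disagree; inactive = below 50% or failed in later tests; about a fifth of its hits are not listed in these tables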;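 note: calls also rest on retests at 20 µM and on dose response follow-up; 0% = protein and probe with vehicle and 100% = probe without protein; strong numbers were not always called active; many hits fall short of the cut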
HIV Env fusion = HIV envelope-mediated fusion inhibition; inhibition, % at 12.3 µM; HeLa-JRFL Env/CEM21 cell fusion, luciferase; actives 1.1% (n = 360,000); AID 651610;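 active = mean replicate inhibition score of at least 50 and every replicate individually at or above 50; inconclusive = only one of the two criteria met; inactive = mean below 50 and not all replicates reaching 50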;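 note: 0% = plate neutral controls and 100% = maraviroc near 300 nM; one replicate is shown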
Rce1 inhib = blocks yeast Ras-converting enzyme; Q03530; actives 0.27% (n = 290,000); yeast membranes, quenched prenylated peptide cleavage fluorescence; calls only;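 active = fall in fluorescence gain of 50% or more versus controls, with final raw signal at or below 3038400; inconclusive = same 50% fall but final raw signal above 3038400; inactive = fall in fluorescence gain under 50%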;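 note: plate controls were neutral control wells for no effect and wells lacking membranes for full effect; tested at 10 µM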
UUG fidelity = modulators of start codon recognition fidelity in yeast | S. cerevisiae UUG-firefly luciferase reporter, luminescence/redox ratio | activity score, % at 18.7 µM | actives 0.13% (n = 350,000) | AID 602363;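 active = replicate mean at a twofold rise or more, about +100% in these data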;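 note: firefly luciferase made from a UUG start codon reports start codon fidelity; reporter light over untreated wells divided by growth signal over untreated wells; some hits fall short of that in this replicate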
PABP FP inh = blocks human PABP binding to poly(A) RNA. actives 1% (n = 290,000). P11940. fluorescence polarization. inhibition, % at 35 µM;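 active = 50% or more with normal probe brightness, or confirmed in later tests; inconclusive = above 50% with abnormal brightness, or retests that disagree; inactive = below 50% or failed in later tests; about a fifth of its hits are not listed in these tables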;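 note: calls also rest on retests at 20 µM and on dose response follow-up; controls were probe without protein and protein plus probe with vehicle; some compounds called inactive have numbers as strong as hits; many hits fall short of the cut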
Target sequence (P11940 whole entry, looked up): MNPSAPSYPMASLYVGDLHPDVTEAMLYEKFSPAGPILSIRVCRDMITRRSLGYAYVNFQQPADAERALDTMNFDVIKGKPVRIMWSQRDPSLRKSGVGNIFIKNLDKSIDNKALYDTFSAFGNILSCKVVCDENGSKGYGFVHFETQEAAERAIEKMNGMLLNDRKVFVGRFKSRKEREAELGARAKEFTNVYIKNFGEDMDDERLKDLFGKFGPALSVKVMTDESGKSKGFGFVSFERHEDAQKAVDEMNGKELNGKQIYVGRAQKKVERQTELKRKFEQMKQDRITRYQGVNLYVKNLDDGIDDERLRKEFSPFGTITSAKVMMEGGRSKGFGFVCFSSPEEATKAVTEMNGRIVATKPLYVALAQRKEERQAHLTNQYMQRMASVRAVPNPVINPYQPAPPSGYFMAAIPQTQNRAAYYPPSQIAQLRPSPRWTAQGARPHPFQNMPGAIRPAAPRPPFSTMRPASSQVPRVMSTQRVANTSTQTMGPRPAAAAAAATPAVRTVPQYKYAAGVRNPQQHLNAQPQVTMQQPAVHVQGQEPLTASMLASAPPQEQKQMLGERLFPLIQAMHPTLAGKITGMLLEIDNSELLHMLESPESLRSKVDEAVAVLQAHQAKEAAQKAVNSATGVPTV
eIF4H inh retest = recorded beside eIF4H inh, whose call it bears; inhibition, %; compound at 20 µM; confirmation average;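 mean of two retest wells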
PABP FP inh retest = also measured in PABP FP inh; calls as there; inhibition, %; compound at 20 µM; confirmation repeats;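 mean of two retest wells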
MT1-MMP act inh RFP = also measured in MT1-MMP act inh; calls as there; RFP signal change, %; measured here: RFP expression control read;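 0 = vehicle wells; hits needed this value within 50% of zero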
Starred values were filed as active, the others as inactive. An excerpt; the hit share may differ from the screen's.

CC(C)(C)c1cc(NC(=O)Nc2ccc(Cl)cc2Cl)no1 was read as MT1-MMP act inh -7, CSC inhib 29, eIF4H inh 0, HIV Env fusion 14, Rce1 inhib inactive, UUG fidelity -14, PABP FP inh 4 and MT1-MMP act inh RFP 0.
COc1ccc(-n2c(=S)[nH]c3cc(C(=O)NCc4ccc(F)cc4)ccc3c2=O)c(OC)c1 was read as MT1-MMP act inh 3, CSC inhib -4, eIF4H inh -2, HIV Env fusion 2, Rce1 inhib inactive, UUG fidelity -7, PABP FP inh 0 and MT1-MMP act inh RFP -8.
CN(CCc1ccccc1)c1ccc([N+](=O)[O-])cn1 was read as MT1-MMP act inh -3, CSC inhib -12, eIF4H inh 3, HIV Env fusion -197, Rce1 inhib inactive, UUG fidelity 1, PABP FP inh -5 and MT1-MMP act inh RFP -1.
Screening Cc1ccccc1CCN(C(=O)Cn1nnc2ccccc21)C(C(=O)NC(C)(C)C)c1ccsc1 (stereo not given) returned MT1-MMP act inh 8, CSC inhib -10, eIF4H inh 0, Rce1 inhib inactive, UUG fidelity -4, PABP FP inh 11 and MT1-MMP act inh RFP -1.
`O=C(Nc1ccc2c(c1)CCCN2C(=O)c1ccccc1)c1ccccc1` gave MT1-MMP act inh -7, CSC inhib 31, eIF4H inh -15, HIV Env fusion -20, Rce1 inhib inactive, UUG fidelity 3, PABP FP inh -6 and MT1-MMP act inh RFP -2.
For C=CCC[C@@H](Cc1ccc(F)cc1)C(=O)OC[C@H](Cc1c[nH]c2ccccc12)NC(=O)[C@@H](CC=C)CC(=O)N[C@H](CO)Cc1ccccc1 the results were MT1-MMP act inh 0, CSC inhib 5, HIV Env fusion -11, UUG fidelity -19 and MT1-MMP act inh RFP -6.
Screening O=C(Nc1ccc(Br)cc1)c1ccc(-n2cnnn2)cc1 returned MT1-MMP act inh 4, CSC inhib -6, eIF4H inh 2, HIV Env fusion 12, Rce1 inhib inactive, UUG fidelity -18, PABP FP inh 2 and MT1-MMP act inh RFP -3.
For COC(=O)c1ccc(C(=O)OC)c(NC(=O)CSc2ccccn2)c1 the results were MT1-MMP act inh 3, CSC inhib 16, eIF4H inh 22, HIV Env fusion 11, Rce1 inhib inactive, UUG fidelity 1, PABP FP inh 6 and MT1-MMP act inh RFP -2.
`Nc1ncnc(Nc2ccccc2Oc2ccccc2)n1` gave MT1-MMP act inh -1, HIV Env fusion -5, UUG fidelity -9 and MT1-MMP act inh RFP -5.
Screening O=C(CNC(=O)c1ccncc1)N/N=C/c1ccccc1[N+](=O)[O-] returned MT1-MMP act inh 0, CSC inhib 2, eIF4H inh 12, HIV Env fusion -2, Rce1 inhib inactive, PABP FP inh -5 and MT1-MMP act inh RFP -3.
O=S(=O)(Nc1ccc2c(c1)OCCO2)c1cccc(F)c1 was read as MT1-MMP act inh 4, eIF4H inh 5, HIV Env fusion 1, Rce1 inhib inactive, UUG fidelity -24, PABP FP inh 9 and MT1-MMP act inh RFP -5.
Screening COc1ccc(S(=O)(=O)N2CCOCC2)cc1NC(=O)CN1CCC(Cc2ccccc2)CC1 returned MT1-MMP act inh -7, CSC inhib -6, eIF4H inh 4, HIV Env fusion 29, Rce1 inhib inactive, UUG fidelity -21, PABP FP inh 0 and MT1-MMP act inh RFP -15.
CCOC(=O)CSc1n[nH]c(NC(=O)c2ccc(F)cc2)n1 was read as MT1-MMP act inh -1, CSC inhib 3, eIF4H inh 10, UUG fidelity -7, PABP FP inh 5 and MT1-MMP act inh RFP 1.
For Cc1csc(NC(=O)CCC(=O)N(CC(=O)NC2CCCC2)c2ccccc2)n1 the results were MT1-MMP act inh -1, CSC inhib -15, eIF4H inh -10, HIV Env fusion -8, Rce1 inhib inactive, UUG fidelity -6, PABP FP inh 0 and MT1-MMP act inh RFP -1.
`COc1cc(C(=O)NCC(c2cccs2)N2CCOCC2)cc(Br)c1OCc1ccccc1` (stereo not given) gave MT1-MMP act inh -3, CSC inhib 30, UUG fidelity -15 and MT1-MMP act inh RFP -12.
`COc1ccc(/C=C(\NC(=O)c2ccccc2)C(=O)NCc2ccco2)cc1OC` gave MT1-MMP act inh 1, CSC inhib -23, eIF4H inh -3, HIV Env fusion 18, Rce1 inhib inactive, UUG fidelity 1, PABP FP inh -1 and MT1-MMP act inh RFP 3.
For CCN(C(=O)c1ccc2c(c1)OCO2)C12CC3CC(CC(C3)C1)C2 the results were MT1-MMP act inh -2, CSC inhib 26, HIV Env fusion 30, UUG fidelity -17 and MT1-MMP act inh RFP -7.
Cc1ccc(S(=O)(=O)N2CCCN(C)CC2)cc1 was read as MT1-MMP act inh 3, CSC inhib -15, eIF4H inh -2, HIV Env fusion 5, Rce1 inhib inactive, UUG fidelity -1, PABP FP inh 5 and MT1-MMP act inh RFP 3.
COc1ccc(C(=O)N2CCN(S(=O)(=O)c3ccc(Br)cc3)CC2)cc1 was read as MT1-MMP act inh 0, HIV Env fusion 16, UUG fidelity -6 and MT1-MMP act inh RFP -3.
For O=C(NCCCN1CCCC1=O)c1cc2ccccc2o1 the results were MT1-MMP act inh 0, HIV Env fusion 39, UUG fidelity -6 and MT1-MMP act inh RFP -2.

The final two entries of the part before open the next one:
COc1ccc(C(=O)N2CCN(S(=O)(=O)c3ccc(Br)cc3)CC2)cc1 was read as MT1-MMP act inh 0, HIV Env fusion 16, UUG fidelity -6 and MT1-MMP act inh RFP -3.
For O=C(NCCCN1CCCC1=O)c1cc2ccccc2o1 the results were MT1-MMP act inh 0, HIV Env fusion 39, UUG fidelity -6 and MT1-MMP act inh RFP -2.
`Cc1ccc(NC(=S)N(CCCN(C)C)Cc2cc3cc4c(cc3[nH]c2=O)OCO4)cc1` gave CSC inhib -14, eIF4H inh -6, HIV Env fusion -2, Rce1 inhib inactive and PABP FP inh 2.
For CC(C(=O)OCC(=O)c1cccc([N+](=O)[O-])c1)N1C(=O)C2C3CCC(C3)C2C1=O (stereo not given) the results were MT1-MMP act inh 0, CSC inhib -5, eIF4H inh -10, HIV Env fusion 7, Rce1 inhib inactive, PABP FP inh 3 and MT1-MMP act inh RFP 1.
Screening O=C(Cn1cnc2sc(-c3ccccc3)cc2c1=O)N1CCOCC1 returned MT1-MMP act inh 5, CSC inhib 3, eIF4H inh -7, HIV Env fusion -50, Rce1 inhib inactive, UUG fidelity -16, PABP FP inh -2 and MT1-MMP act inh RFP 1.
O=C(COC(=O)c1ccc(Cl)c(S(=O)(=O)NCc2ccccc2)c1)NCC1CCCO1 (stereo not given) was read as MT1-MMP act inh -2, CSC inhib -12, eIF4H inh -6, HIV Env fusion 1, Rce1 inhib inactive, UUG fidelity 5, PABP FP inh 8 and MT1-MMP act inh RFP 5.
Screening Cc1ccc(S(=O)(=O)NC[C@H]2O[C@@H](n3cnc4c(N)ncnc43)[C@H](O)[C@@H]2O)s1 returned MT1-MMP act inh 5, CSC inhib -15, HIV Env fusion 19, UUG fidelity -4 and MT1-MMP act inh RFP 2.
For N#CCCN(C(=O)COC(=O)C1CCN(S(=O)(=O)c2ccccc2C(F)(F)F)CC1)c1ccccc1 the results were MT1-MMP act inh 6, HIV Env fusion 2, UUG fidelity 37 and MT1-MMP act inh RFP 4.
Screening Cc1cccc(NC(=S)NCc2cccs2)c1 returned MT1-MMP act inh 0, CSC inhib -18, eIF4H inh 2, HIV Env fusion -1, Rce1 inhib inactive, PABP FP inh 20 and MT1-MMP act inh RFP -4.
`CCCCOc1ccc(Br)cc1CSC(=N)N` gave MT1-MMP act inh -13, eIF4H inh 25, HIV Env fusion 0, Rce1 inhib inactive, PABP FP inh 19 and MT1-MMP act inh RFP -20.
`N#Cc1ccc(NCC(=O)Nc2ccc3c(c2)OCCO3)cc1` gave MT1-MMP act inh 3, CSC inhib 5, eIF4H inh -10, HIV Env fusion -5, Rce1 inhib inactive, UUG fidelity -4, PABP FP inh 33 and MT1-MMP act inh RFP 3.
For Cc1ccc(C(=O)N/N=C\c2ccc[nH]2)cc1[N+](=O)[O-] the results were MT1-MMP act inh -10, CSC inhib 5, eIF4H inh -12, HIV Env fusion inconclusive, Rce1 inhib inactive, UUG fidelity -26, PABP FP inh -7 and MT1-MMP act inh RFP -26.
Screening CC(C)(C)NC(=O)COC(=O)c1cc(Br)ccc1Cl returned MT1-MMP act inh 0, CSC inhib -7, eIF4H inh 0, HIV Env fusion -7, Rce1 inhib inactive, UUG fidelity -5, PABP FP inh -9 and MT1-MMP act inh RFP 4.
`Cc1cccc(S(=O)(=O)Nc2nc3ccccc3nc2Nc2ccc3c(c2)OCO3)c1` gave MT1-MMP act inh 1, CSC inhib 36, eIF4H inh 96, Rce1 inhib inactive, UUG fidelity -2, PABP FP inh -2, eIF4H inh retest -12, PABP FP inh retest 3 and MT1-MMP act inh RFP -8.
Screening CN(C)CCCNC(=S)NCc1ccc(Cl)cc1 returned CSC inhib -11, eIF4H inh 5, HIV Env fusion -11, Rce1 inhib inactive, UUG fidelity -13 and PABP FP inh -12.
`Cc1cc(C)nc(N(C#N)Cc2ccccc2)n1` gave MT1-MMP act inh 8, CSC inhib 9, eIF4H inh 9, HIV Env fusion -313, Rce1 inhib inactive, UUG fidelity -11, PABP FP inh 11 and MT1-MMP act inh RFP -2.
Screening O=C(c1n[nH]c2ccccc12)N1CCN(S(=O)(=O)c2ccc(Cl)cc2)CC1 returned MT1-MMP act inh 1, HIV Env fusion -3, UUG fidelity 2 and MT1-MMP act inh RFP 3.
`CNC(=O)c1sc2nc(-c3ccc(OC)cc3)cn2c1C` gave MT1-MMP act inh 2, CSC inhib 1, eIF4H inh -5, HIV Env fusion -20, Rce1 inhib inactive, UUG fidelity -10, PABP FP inh 9 and MT1-MMP act inh RFP 2.
For Cc1cccc(N2C(=O)N3[C@H](c4ccc(F)cc4)[C@@H]4C(=O)N(C5CCCCC5)C(=O)[C@@H]4[C@]3(Cc3ccccc3)C2=O)c1 the results were MT1-MMP act inh 4, CSC inhib 9, eIF4H inh -6, HIV Env fusion 55*, Rce1 inhib inactive, UUG fidelity -4, PABP FP inh 10 and MT1-MMP act inh RFP -3.
Cc1cc(Oc2ccc(C#N)cc2)nc(N2CCOCC2)n1 was read as MT1-MMP act inh 1, CSC inhib -3, eIF4H inh -7, Rce1 inhib inactive, UUG fidelity -18, PABP FP inh -13 and MT1-MMP act inh RFP 0.
`Cc1ccc(NCc2nnc(SCc3ccc(C#N)cc3)n2Cc2ccco2)c(C)c1` gave MT1-MMP act inh -4, CSC inhib 6, eIF4H inh -1, HIV Env fusion -15, UUG fidelity -21, PABP FP inh 3 and MT1-MMP act inh RFP -1.
`COc1ccc(C2/C(=C(/O)c3ccc(C)cc3)C(=O)C(=O)N2c2ccccn2)cc1` (stereo not given) gave MT1-MMP act inh 2, CSC inhib -14, eIF4H inh 1, HIV Env fusion -11, Rce1 inhib inactive, UUG fidelity -2, PABP FP inh -6 and MT1-MMP act inh RFP 1.
For CCCCCCC1CC(=O)NC(=S)N1 (stereo not given) the results were MT1-MMP act inh 1, CSC inhib -12, eIF4H inh 26, HIV Env fusion 12, Rce1 inhib inactive, PABP FP inh 16 and MT1-MMP act inh RFP 1.
`Cc1ccc2[nH]c(=O)c3cc(C(=O)N4CCN(C(=O)c5ccco5)CC4)sc3c2c1` gave MT1-MMP act inh -2, CSC inhib -15, eIF4H inh 11, HIV Env fusion -8, Rce1 inhib inactive, UUG fidelity 1, PABP FP inh 1 and MT1-MMP act inh RFP 0.
`c1ccc(CNc2nc(N3CCOCC3)nc(N3CCOCC3)n2)cc1` gave MT1-MMP act inh 4, CSC inhib -12, eIF4H inh -7, UUG fidelity -14, PABP FP inh 6 and MT1-MMP act inh RFP 2.
